ClpP mod = qHTS Assay for Activators of ClpP; ATP-dependent Clp protease proteolytic subunit (Bacillus subtilis (strain 168)), P80244; purified B. subtilis ClpP, FRET peptide cleavage, 20 min; Potency, µM (series often up to 57.5 µM), inactives show top-dose activity change, negative = active; actives 1.9% (n = 340,000); AID 651965, 2013; active = well fitted falling curve with a large enough effect; inconclusive = small, poorly fitted or top-dose-only effect; inactive = no such curve, though single readings can be large or run the other way; further: potency means the concentration at half of the fitted maximal effect; the source files actives as falling curves though it sought activators and does not explain the sign; nearly all actives have a fitted effect of over 65% in size; many hits overshoot -100%
Target sequence (P80244 whole entry, looked up): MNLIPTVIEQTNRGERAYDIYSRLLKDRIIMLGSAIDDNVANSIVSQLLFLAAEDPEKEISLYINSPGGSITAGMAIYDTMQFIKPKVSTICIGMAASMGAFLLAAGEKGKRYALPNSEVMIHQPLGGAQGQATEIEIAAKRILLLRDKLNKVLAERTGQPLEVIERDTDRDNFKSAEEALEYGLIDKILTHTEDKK
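ClpP 10 microg/mL final, pH 8 Tris/KCl buffer with BSA, glycerol, Tween-20; compound pinned in; FRET-FV substrate; RT 20 min; Ex320/Em430; ΔFRET vs ADEP 5.8 microM, DMSO, no enzyme.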
TRPML1 blocker = human mucolipin-1 channel inhibition; Q9GZU1; TRPML1-inducible cells, Ca2+ dye fluorescence, FDSS; stronger effect = lower value; inhibition of EC80 agonist-evoked calcium signal; activity change, negative = inhibition, % (no concentration beside the values); actives 0.02% (n = 390,000); AID 624415; in the data active means activity change below about -50%; inconclusive means about -30% to -50%; inactive means above about -30%;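 further: stimulus is agonist 54-4 at its EC80 concentration; on the % scale 0 is the no-effect control and ±100 the full control effect; compound concentration not given in the record; the text of the record puts the active cut at -80%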
Target sequence (Q9GZU1 whole entry, looked up): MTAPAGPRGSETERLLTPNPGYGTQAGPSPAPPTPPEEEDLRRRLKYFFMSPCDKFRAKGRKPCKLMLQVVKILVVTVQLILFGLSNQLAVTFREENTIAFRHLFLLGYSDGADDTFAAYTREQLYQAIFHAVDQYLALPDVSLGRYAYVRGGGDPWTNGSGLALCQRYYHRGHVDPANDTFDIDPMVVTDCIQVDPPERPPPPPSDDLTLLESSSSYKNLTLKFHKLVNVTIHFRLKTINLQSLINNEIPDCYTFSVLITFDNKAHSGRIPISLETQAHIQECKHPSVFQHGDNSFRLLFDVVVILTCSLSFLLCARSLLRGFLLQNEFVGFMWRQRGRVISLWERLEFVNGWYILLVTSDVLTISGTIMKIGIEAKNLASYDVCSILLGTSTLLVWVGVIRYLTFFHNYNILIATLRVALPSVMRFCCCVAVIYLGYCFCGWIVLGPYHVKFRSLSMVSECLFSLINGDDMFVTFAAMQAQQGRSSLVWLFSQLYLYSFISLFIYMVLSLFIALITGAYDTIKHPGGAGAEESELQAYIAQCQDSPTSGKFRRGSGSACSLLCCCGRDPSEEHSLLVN
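TRPML1-DL cells, Tet-induced overnight (~16 h, 37 °C) at 1,500 cells/well, were loaded with Ca8 no-wash dye plus quencher for 45-90 min at room temperature. Compounds were pinned during FDSS kinetic reading; agonist 54-4 at EC80 (4 uM final) then added.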
* hit, by the source's call; ? = inconclusive. Some of the compounds tested, so the mix of outcomes need not match the whole.

SMILES	ClpP mod	TRPML1 blocker
Cc1ccc(CNC(=O)Cn2c(=O)n(-c3cccc(Cl)c3)c(=O)c3sc4ccccc4c32)cc1	?	1
CCc1ccc(-n2c(=O)c3c(C)c(C)sc3n(CC(=O)NCc3ccc(C)cc3)c2=O)cc1	1.6%	-4
COc1ccc(-c2nc(C)c(CCNC(=O)c3ccc(F)c(F)c3)s2)cc1	3.9%	27
CCOC(=O)c1ccc(NC(=O)CC2Nc3cc(C)c(C)cc3NC2=O)cc1 (stereo not drawn)	-29%	23
Cc1ccc(C)c(NC(=O)CCc2nc3cccnc3n2Cc2cccs2)c1	-2.1%	13
Cc1nc2nncn2c(Nc2ccccc2)c1C	-1.2%	5
CC1(C)O[C@H]2[C@@H](O1)[C@@H](C(=O)Nc1ccccc1C(F)(F)F)O[C@@H]1OC(C)(C)O[C@@H]12	-13%	7
CCOC(=O)C1(C)CCN1C(=O)CSc1ccccc1 (stereo not drawn)	-0.3%	23
O=S1(=O)CC(N2CCN(c3ccccn3)CC2)CN1Cc1ccc(F)cc1 (stereo not drawn)	-6.8%	-3
Cc1ccccc1-c1nc(CS(=O)(=O)CC(=O)NCCCc2ccccc2)c(C)o1	-2.4%	3
COC(=O)CN1C(=O)C(C)(C)c2cc(S(=O)(=O)NCc3ccc(Cl)cc3)ccc21	-0.7%	-28
CCc1ccccc1Nc1cc(C(=O)NC(C)c2ccccc2)c2ccccc2n1 (stereo not drawn)	?	-5
Cc1ccc(Oc2c(C(F)(F)F)oc3c(CN4CCCCC4C)c(O)ccc3c2=O)cc1 (stereo not drawn)	-5.7%	14
CCC(CC)C(=O)Nc1cc(-c2ccccc2F)nn1-c1ccccc1	-6.6%	40
Cc1cccc(CNC(=O)CN2C(=O)C3CCCCN3c3ccc(C(=O)N4CCCC4)cc32)c1 (stereo not drawn)	-4.8%	7
Fc1ccccc1-c1nc(N2CCN(c3cccc(Cl)c3)CC2)c2ccccc2n1	32µM*	13
COc1ccc(CNC(=O)Cc2c(C)c3cc4c(C)coc4c(C)c3oc2=O)cc1	-20%	1
Cc1ccc([N+](=O)[O-])cc1S(=O)(=O)N1CCn2cccc2C1c1ccccc1 (stereo not drawn)	-0.7%	45
CC(C)OCCCNC(=O)CCCn1c(SCC(N)=O)nc2c(sc3ccccc32)c1=O	-7.1%	-7
CC(C)C[C@@H](CN1CCC[C@@H]1CN1C(=S)NC[C@@H]1Cc1ccccc1)N1C[C@H](Cc2ccc(O)cc2)N(CC2CCCCC2)C1=S	3.5%	6
COc1ccc(C2=NN(S(C)(=O)=O)C(c3cn(-c4ccccc4)nc3-c3cccs3)C2)cc1 (stereo not drawn)	14µM*	29
Cc1cc(C)cc(NC(=O)CSc2oc(-c3cccs3)nc2S(=O)(=O)c2ccccc2)c1	-11%	-2
CCC1CCCCN1S(=O)(=O)c1cc2c3c(c1)CC(=O)N3CCC2 (stereo not drawn)	-1.0%	40
Cc1cn(C)c(CC(=O)Nc2cccc(C#N)c2)c1C(=O)O	0.2%	-11
CC(C)COC(=O)N1CCCCC1c1cc(C(=O)NCc2ccccc2)no1 (stereo not drawn)	-0.1%	-3
COc1ccc(-c2nc(S(=O)(=O)c3ccccc3)c(N3CCCCC3)o2)cc1	0.9%	24
Cc1ccccc1CSc1ncc(CO)n1Cc1ccc(F)cc1	0.5%	13
CCC1Cc2[nH]c(=S)[nH]c(=O)c2C(c2ccc(F)cc2)O1 (stereo not drawn)	1.0%	35
COc1cccc(CNC(=O)CN2N=C(c3ccc(C)cc3)CCC2=O)c1	1.0%	-5
O=C(NCc1cccc(F)c1)c1cccc(NC(=O)c2nsc3ccccc23)c1	113%	32
COc1ccccc1CNC(=O)c1cc(S(=O)(=O)N2CCCCCC2)cn1C	1.2%	-15
Cc1cccc(NC(=O)CSc2c(C)cnc3c2c(=O)n(C)c(=O)n3C)c1C	2.0%	1
CCOc1ccc(-c2cc3c(=O)n(Cc4nc(-c5ccc(OC)cc5OC)oc4C)ccn3n2)cc1Cl	-3.6%	0
N#Cc1c[nH]n2c(NC3CCCCC3)c(-c3ccccc3F)nc12	-24%	10
Cc1ccc(S(=O)(=O)Nc2cc3c(cc2N2CCOCC2)n(C)c(=O)n3C)cc1	-3.7%	5
Cc1cc(NC(=O)c2cnc3c(-c4ccccc4)c(C)nn3c2C)ccc1Br	-19%	5
COc1ccc(CCNC(=O)c2ccc(-n3c(C)cc4c3CCCC4)cc2)cc1OC	-2.0%	0
Cc1ccc(Cl)cc1N1CCN(CCNC(=O)Nc2ccc(Cl)cc2)CC1	-0.4%	-2
O=C(Nc1ccc2nc(SCCOc3ccccc3)sc2c1)c1ccco1	15%	-14
COc1ccc(OC)c(NC(=O)COCc2cc(-c3ccco3)on2)c1	-1.1%	-11
CCOc1ccc(NC(=O)N2CCN(Cc3cc(=O)n4nc(-c5ccc(OC)cc5)sc4n3)CC2)cc1	-11%	7
CCN(C(=O)C1CCN(S(=O)(=O)c2c(C)noc2/C=C/c2ccc(C)cc2)CC1)c1cccc(C)c1	1.6%	8
CC[C@@H]1CC2=C(C(=O)OC(C)(C)O2)[C@H](c2ccc(F)cc2)O1	2.7%	17
CC1CCN(S(=O)(=O)c2ccc3c(c2)N(CC(=O)N(C)Cc2ccccc2)C(=O)CO3)CC1	1.5%	-6
COc1cccc(-n2c(-c3ccco3)nc3c(cnn3-c3ccc(Cl)cc3)c2=O)c1	-30%	-1
COCCCNC(=O)c1sc2nc(C)c(C(=O)Nc3ccc(Cl)cc3)c(-c3ccc(Br)cc3)c2c1N	6.9%	5
O=C(Nc1ccc(Cl)cc1Cl)c1cc(S(=O)(=O)N2CCN(c3ccccc3F)CC2)ccc1F	-6.6%	73
CCCS(=O)(=O)N1CCCC(C(=O)NCCCOC)C1 (stereo not drawn)	-0.3%	-2
Cc1cc(C)c2c(=O)c3c(oc2c1)C(=O)N(Cc1ccco1)C3c1ccccc1F (stereo not drawn)	0.4%	10
O=C(Cn1cc(C(=O)C2CC2)c2ccccc21)Nc1ccc(Br)cc1	-0.5%	-28
CC(C)CC(N)c1csc(Nc2ccc(C(=O)N(C)Cc3ccccc3)cn2)n1 (stereo not drawn)	-6.8%	0
CCn1cc(S(=O)(=O)c2cccc(Cl)c2)c(=O)c2cc(F)c(N3CCN(C)CC3)cc21	-13%	9
O=C(CCn1c(=O)c2ccccc2n(Cc2cccc(F)c2)c1=O)NCc1ccc2c(c1)OCO2	-4.2%	3
CCc1ccc(OCCn2c(C3CC(=O)N(Cc4ccc(F)cc4)C3)nc3ccccc32)cc1 (stereo not drawn)	2.8%	6
Cc1ccc(NC(=O)CCCn2c(=O)c3cccn3c3cccnc32)c(Cl)c1	-7.6%	-1
CCOc1ccc(C(=O)c2c(N)c(-c3nc(-c4ccc(OCC)cc4)cs3)c3ccccn23)cc1	1.0%	3
CCn1ccc2cc(S(=O)(=O)N3CCC(C(=O)NCCc4ccc(SC)cc4)CC3)ccc21	-11%	15
CCOC(=O)c1ccc(NC(=O)CCCn2c(=O)c3cccn3c3cccnc32)cc1	-27%	-6
O=C(COCc1cc(-c2cccs2)on1)Nc1cccc(Cl)c1Cl	-5.4%	14
COc1ccc(NC(=O)CN(Cc2ccccc2)S(=O)(=O)c2ccc3nc(C)sc3c2)cc1	-2.2%	1

Additional entries.
SMILES	ClpP mod	TRPML1 blocker
Cc1ccccc1NC(=O)Cn1cc(S(=O)(=O)N2CCCC2)c(S(=O)(=O)N2CCCC2)c1	1.1%	-2
Cc1cc(C)cc(NC(=O)CCc2c(C)nc3c(c2C)c(=O)n(C)c(=O)n3C)c1	-1.0%	-11
COc1ccc(C2=CC(c3cc(Br)ccc3F)n3c(nc4ccccc43)N2)cc1 (stereo not drawn)	-5.4%	-1
O=C(NCC(c1cccnc1)N1CCc2ccccc21)C(=O)Nc1ccccc1F (stereo not drawn)	-4.0%	8
COc1ccc(NC(=O)CSc2nc3ncccc3[nH]2)c(OC)c1	0.7%	-11
Cc1ccc(Nc2ncnc3sc4c(c23)CCC(C)C4)cc1C (stereo not drawn)	-5.9%	14
Cc1ccc(-c2nc(C)c(CCNS(=O)(=O)c3ccccc3F)s2)cc1	4.0%	22
COc1ccc(OC)c(CNS(=O)(=O)c2c(C(=O)N3CCCCCC3)c(C)n(C)c2C)c1	0.9%	13
CCCOc1ccc(C(=O)Nc2cccc(-c3nc4ccccc4[nH]3)c2)cc1	?	-6
Cc1ccc(S(=O)(=O)c2nnn3c2nc(N2CCN(c4ccccc4F)CC2)c2cc(Cl)ccc23)cc1C	-10%	17
Cc1cccc(Cn2nnc3c(=O)[nH]c(C4CCCN(C(=O)c5ccc(C(C)(C)C)cc5)C4)nc32)c1 (stereo not drawn)	2.0%	32
Cc1ccc(/C=C/c2onc(C)c2S(=O)(=O)N2CCC(C(=O)N3CCOc4ccc(C)cc43)CC2)cc1	-18%	-1
COc1cc(-c2nc(-c3ccccc3)c(-c3ccc(Br)cc3)[nH]2)cc(OC)c1O	4.6%	28
CC(=O)c1cccc(NC(=O)CSc2ncc3c(n2)-c2cc(Cl)ccc2N(Cc2ccccc2)S3(=O)=O)c1	4.1%	14
O=C(CN1C(=O)COc2ccc(S(=O)(=O)N3CCCCCC3)cc21)N1CCN(c2cccc(Cl)c2)CC1	-1.1%	32

Full records, looked up by structure. Order of screens: ClpP mod	TRPML1 blocker
O=C(CN1C(=O)COc2ccc(S(=O)(=O)N3CCCCCC3)cc21)N1CCN(c2cccc(Cl)c2)CC1 reads -1.1%	32
Cc1cc(C)cc(NC(=O)CCc2c(C)nc3c(c2C)c(=O)n(C)c(=O)n3C)c1 reads -1.0%	-11

By substructure: those above containing an NH in an aromatic ring.
SMILES	ClpP mod	TRPML1 blocker
CCC1Cc2[nH]c(=S)[nH]c(=O)c2C(c2ccc(F)cc2)O1 (stereo not drawn)	1.0%	35
N#Cc1c[nH]n2c(NC3CCCCC3)c(-c3ccccc3F)nc12	-24%	10
COc1ccc(NC(=O)CSc2nc3ncccc3[nH]2)c(OC)c1	0.7%	-11
CCCOc1ccc(C(=O)Nc2cccc(-c3nc4ccccc4[nH]3)c2)cc1	?	-6
Cc1cccc(Cn2nnc3c(=O)[nH]c(C4CCCN(C(=O)c5ccc(C(C)(C)C)cc5)C4)nc32)c1 (stereo not drawn)	2.0%	32
COc1cc(-c2nc(-c3ccccc3)c(-c3ccc(Br)cc3)[nH]2)cc(OC)c1O	4.6%	28

(next part)
SMILES	ClpP mod	TRPML1 blocker
CCOC(=O)c1ccc(N2CCN(c3cccc(Cl)c3)CC2)c(NC(=O)Nc2ccc(OC)cc2OC)c1	-13%	5
O=C(COc1ccc(Cl)cc1)NCC(c1ccco1)S(=O)(=O)c1ccccc1 (stereo not drawn)	1.6%	25
COc1cc(Nc2nc(SCc3cccc(Cl)c3)nc3ccccc23)cc(OC)c1	32µM*	25
O=C(CSc1nc2ccccc2nc1Cc1ccccc1)N1CCN(c2ccccc2)CC1	-0.7%	8
CCOc1ccc(OCC)c(NS(=O)(=O)c2cc(Br)cc3c2N(C(C)=O)C(C)C3)c1 (stereo not drawn)	-0.4%	6
CC(=O)Nc1ccc(NC(=O)CC2Sc3ccccc3NC2=O)cc1 (stereo not drawn)	0.2%	-16
CCCCOc1ccc(C(C)NC(=O)CN2C(=O)CSc3ccc(S(=O)(=O)N4CCOCC4)cc32)cc1 (stereo not drawn)	-0.7%	-3
O=C(N1CCOCC1)N1[C@H](COCc2ccccc2)C=CS1(=O)=O	-3.6%	-9
O=C(CN1C(=O)C2CCCCN2c2ccc(C(=O)N3CCCC3)cc21)NCc1cccc(F)c1 (stereo not drawn)	-4.3%	-2
Cc1cccc(C)c1OC(=O)CSc1nnc(-c2cccs2)o1	-27%	0
CCc1ccc(NCc2cc3cc4c(cc3n(CC(=O)Nc3cccc(OC)c3)c2=O)OCO4)cc1	3.6%	-20
COc1ccc(-c2cccc(NS(=O)(=O)c3cccs3)c2)nn1	-1.2%	25
Cc1ccc(-c2nc3ncccc3o2)cc1NC(=O)c1ccc(-c2ccc(Cl)cc2)o1	-18%	5
Clc1cccc(N2CCN(c3ncnc4c3nc3n4CCCCC3)CC2)c1	0.2%	10
O=c1oc2ccc(Br)cc2cc1-c1csc(-c2ccccc2)n1	-16%	9
Cc1ccc(-c2c3c(=O)n(C)c(=O)n(C)c3c3c(-c4cccc(C)c4)nc4ccccc4n23)cc1	-1.9%	0
O=C(NCCSc1c(-c2ccc(Cl)cc2)[nH]c2ccccc12)c1ccc(S(=O)(=O)N2CCOCC2)cc1	-6.8%	28
CC(C)C(=O)N1c2ncnn2C2(CCCCC2)[C@@H]2CCCC[C@@H]21	-3.9%	?
Cc1cccc(NC(=O)Cn2cc(S(=O)(=O)Cc3ccccc3Cl)c3ccccc32)c1	-6.0%	-3
Cc1ccc(-c2nc3n(n2)C(=O)CC(c2ccc(Cl)cc2)S3)cc1 (stereo not drawn)	-0.8%	-19

Compound activity (PubChem)
